Bioassay records: PubChem, Fisher Drug Discovery Resource Center
NPYLR7 ag: mosquito NPYLR7 agonism | activation, % at 10 µM | hit rate 0.15% among 270,000 | HEK293T NPYLR7/Galpha15, GCaMP6s calcium fluorescence | AID 1259423; in the data active = activation above about 40%;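 also: 0% = vehicle and 100% = reference agonist at the receptor; some compounds past the cut are filed as inactive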
NPYLR7 ag max-min: further read-out of NPYLR7 ag, marked with its call; activation, %; measured here: Max-Min RFU normalised activation; some inactives read as strong as hits;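 span of the calcium signal over five minutes; 0% = vehicle and 100% = native peptide agonist; compound fluorescence can raise it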
* hit, by the source's call; & = joins results of further samples. These rows are one share of the data; rates above refer to the full screens.

SMILES	NPYLR7 ag	NPYLR7 ag max-min
O=C(CSc1ccc(NC(=O)c2cccc(F)c2)nn1)NCc1ccccc1	2	-1
O=C(NC1CC1)c1cc2n(n1)CCN(c1cc(N3CCCCC3)ncn1)C2	5	-8
O=C(C1CCN(S(=O)(=O)N2CCOCC2)CC1)N1CCCC1	7	1
O=C(O)Cc1c(C(=O)O)nnn1-c1ccc(Br)cc1	0	-1
O=C(NCCCNc1cc(=O)oc2ccccc12)c1cccnc1	17	6
CCOC(=O)C1CSCCN1Cc1coc(-c2ccc(OC)cc2)n1 (stereo not drawn)	5	0
Cc1cc(-n2cnnc2CCc2ccccc2)n(C)n1	11	5
COc1ccc(-c2cccc(-n3cncc3C(=O)NCc3ccc(S(N)(=O)=O)cc3)c2)cc1OC	3	6
CN(CCn1ccc2ccccc21)C(=O)C1=NNC(=O)CC1	10	9
COCOc1cccc(CN2CCC2(C)C(=O)N2CCN(C(C)=O)CC2)c1 (stereo not drawn)	5	-1
O=C(c1cc(=O)c2ccccc2o1)N1CCN(Cc2nc(-c3cccs3)cs2)CC1	-11	-18
CCCCCCCCCCCCCCCC(=O)OC[C@H](NC(=O)C(Cl)Cl)[C@H](O)c1ccc([N+](=O)[O-])cc1	2	-3
Cc1cnc(NC(=O)c2ccc(N(C)C3CCCCC3)cc2)s1	1	0
CCC(C)C(NC(=O)C(c1ccccc1)c1ccccc1)C(=O)Nc1nnc(-c2cccc(OC)c2)s1 (stereo not drawn)	16	18
O=C(Cc1cccs1)N1CCC(n2c(Cc3ccccc3)nc3ccccc32)CC1	6	16
N#Cc1cccc(OC2CC3CCC(C2)N3C(=O)c2ccc(CSc3nnc(-c4ccncc4)o3)cc2)c1 (stereo not drawn)	2	-9
CC1CN(c2cc(Cl)nc(SCC(=O)N3CC4(C)CC3CC(C)(C)C4)n2)CCN1C(=O)c1ccccc1F (stereo not drawn)	11	12
COC(=O)Cn1cnc2c(nnn2Cc2ccc(Cl)cc2)c1=O	3	2
CC(O)c1nc2ccccc2n1Cc1ccc(Cl)cc1Cl (stereo not drawn)	1	-5
COc1ccc2cc(C3CN(Cc4ncccc4C)CCO3)ccc2c1 (stereo not drawn)	6	-5
CCC(=O)Nc1cc(Cl)ccc1C(=O)NC(C)CCn1cccn1 (stereo not drawn)	-1	-3
CN1CCC(NC(=O)c2cc3cc(C(F)(F)F)ccc3n2C)C1=O (stereo not drawn)	1	3
O=S(=O)(c1ccc(SCc2cc(Cl)c3c(c2)OCCO3)nc1)N1CCCC1	8	6
Cc1nc2ccccc2nc1N1CCN(C(=O)COc2ccc(Cl)cc2)CC1	19	17
O=C(CN1Cc2ccccc2C1)Nc1cc(C2CCCC2)[nH]n1	3	1
CCS(=O)(=O)Oc1cc(CNCCOC)ccc1OC	14	12
COc1ccc(CNCC(=O)Nc2cnccn2)c(F)c1F	26	20
CCOC(=O)c1nn(-c2ccccc2Cl)c(=O)cc1OS(=O)(=O)c1cc(C)c(OC)cc1C	3	1
NC(=O)c1cc(S(=O)(=O)NC2CCCC2)cs1	4	2
CCOC(=O)Oc1c(OC)cc(C(=O)O[C@@H]2C[C@@H]3CN4CCc5c([nH]c6cc(OC)ccc56)[C@H]4C[C@@H]3[C@H](C(=O)OC)[C@H]2OC)cc1OC	-6	-10
N#CC1C(=N)C(C#N)(C#N)[C@@H](c2ccc(F)cc2)[C@@H]2CSCC=C12 (stereo partly drawn)	11	7
Cc1cc(Br)oc1C(=O)NCc1ccon1	-2	-4
CC(C)=CC(=O)N(Cc1ccccn1)C(C)C	11	10
CCOC(=O)CN1C(=O)CCN(C(=O)c2ccco2)CC(O)c2ccccc21 (stereo not drawn)	4	13
CC(CC1CCCCC1)NCCCC(=O)N(C)C (stereo not drawn)	22	12
O=C(CCc1cn[nH]c1)N1CCOC(Cc2cccc(C(F)(F)F)c2)C1 (stereo not drawn)	5	2
CC(=O)Nc1ccc(C2=NC(O)C(N)=[N+]([O-])N2)cc1 (stereo not drawn)	13	11
Cn1c(SCC(=O)Nc2nc3ccccc3s2)nc2c([nH]c3ccccc32)c1=O	0	15
CN1CCNC(=O)C1CC(=O)NCCc1nccc(-c2ccccc2)n1 (stereo not drawn)	12	9
COc1ccc(S(=O)(=O)NCC2CCCO2)cc1N1CCN(C(=O)c2ccc(F)cc2C(F)(F)F)CC1 (stereo not drawn)	-1	13
CC/C=C/CC(=O)NC[C@@H]1CCNC[C@H]1O	3	-1
COCCN(CCOC)C(=O)/C=C/c1cn(S(=O)(=O)c2ccc(Cl)s2)c2ccccc12	0	-3
CN1C[C@@H]2CC[C@H](CC1=O)N2C(=O)Cc1ccc(S(C)(=O)=O)cc1	3	2
CCOC(=O)C1C(=O)CSC1=Nc1cccc(C(F)(F)F)c1 (stereo not drawn)	-6	3
CCC(c1ccncc1)N(C)C(=O)NC(C)c1cc(C)ccc1OC (stereo not drawn)	3	0
Cc1oc2nc3c(c(=O)n(Cc4ccc(Cl)cc4Cl)c(=O)n3C)n2c1C	-7	-8
Cc1cc(C=NNC(=O)c2cccnc2)c(C)n1-c1ccc(Br)cc1	-7	-13
CC/C=C/CC(=O)N(Cc1ccccn1)CC1CCCO1 (stereo not drawn)	-1	-5
CCc1ocnc1C(=O)N1C[C@H]2CC=CC[C@H]2C1	3	3
CC(C)(C)C1CCC(CN2CC(O)C(N3CCCC3)C2)CC1 (stereo not drawn)	-1	-7
COc1ccc(NC(=O)c2ccc(=O)n(C)c2)cc1Br	-4	-6
CCN(Cc1ccnc2ccccc12)CC1CCCO1 (stereo not drawn)	4	1
CCOc1ccccc1C1C(C(=O)OCC(C)C)=C(C)NC2=C1C(=O)CC(c1ccc(Cl)cc1)C2 (stereo not drawn)	0	-2
c1ccc(-n2cncn2)c(Cn2cnnc2)c1	4	-8
O=C(Nc1nccs1)c1cccc(CN2CCCC2c2ccccn2)c1 (stereo not drawn)	7	2
CCOC(=O)c1c(OC(C)=O)c(Cc2ccccc2)c(=NC(C)=O)n(Cc2ccccc2)c1C	2	6
CN1CCCCC1COC(=O)c1sccc1SC(F)F (stereo not drawn)	-17	-15
CC1=C(C(=O)OCC(C)C)C(c2ccc(NC(=O)Nc3c(Cl)cccc3Cl)cc2)NC(=S)N1C (stereo not drawn)	19	28
CNC(=O)Cc1nc(CN2CCC(C)CCC2C(C)C)cs1 (stereo not drawn)	1&1	0&-2
CCOc1ccc2cc(C=NNC(=O)c3ccc(OC)cc3)c(Cl)nc2c1	2	-1

Later entries
SMILES	NPYLR7 ag	NPYLR7 ag max-min
Cc1cc(OS(=O)(=O)c2cn(C)c(=O)n(C)c2=O)ccc1Cl	-2	-3
Cn1cnnc1SCC(=O)Nc1cccc(C(F)(F)F)c1	5	0
COC(=O)c1ccc(COn2c(=O)c(-c3cccc(Cl)c3)[n+]([O-])c3ccccc32)cc1	-5	-10
CCCn1c(C(=O)NCc2cccnc2)cc2c(=O)n(C)c(=O)n(C)c21	-3	-3
NC(=S)c1ccc(O)cc1	6	4
C=CCN(CC(=O)N(CCc1ccc(OC)c(OC)c1)Cc1ccc(C)o1)C(=O)Nc1ccc(OC)cc1	2	0
N#CCSc1nc2sc3c(c2c(=O)n1Cc1ccccc1)CCCC3	11	8
CCc1c(C)nc(-n2nc(C)cc2C)n(CC(=O)Nc2cccc(C)c2)c1=O	-3	-5
Cc1nc(CCNC2CCN(C(=O)c3ccccc3)CC2)nc2c1CCCC2	0	-1
CN(C)S(=O)(=O)c1cccc(C(=O)Nc2ccccc2C(C)(C)C)c1	5	0
CC(Oc1cccc(C(C)C)c1)C(=O)NCc1ccnc(N2CCN(C)CC2)c1 (stereo not drawn)	6	3
Cc1cccc2sc(N(CCCN3CCOCC3)C(=O)c3ccc([N+](=O)[O-])s3)nc12	2	-6
COCC(C)NC(=S)Nc1cc(OC)c(OC)cc1C (stereo not drawn)	3	-1
CC(=O)Nc1ccc(C(=O)COc2ccc(F)cc2Br)c(F)c1	2	9
CCc1ccc(-n2c(C(CC)N(CCc3ccc(OC)c(OC)c3)C(=O)Nc3ccccc3C)nc3ccccc3c2=O)cc1 (stereo not drawn)	37	31
CN1CCN(c2ccc(Br)cc2NC(=O)c2ccco2)CC1	9	5
CN(C)c1ccc(/C=C2\N=C(c3cccc(I)c3)OC2=O)cc1	18	4
CC(C)c1nnc(NC(=O)CSc2nnc3c(n2)[nH]c2ccccc23)s1	-1	-5
Cc1ccc2c(c1)c(CNC(=O)c1cc(COc3ccccc3)[nH]n1)nn2C	14	3
COc1ccc2sc(N(CCN(C)C)C(=O)c3cc(Cl)sc3Cl)nc2c1	-3	-6
Cc1ncsc1C(=O)N1C[C@H]2OC(=O)N(CCCN3CCOCC3)[C@H]2C1	3	3
CNC(=O)C(NC(=O)c1c(C)noc1C)c1ccc(F)c(F)c1 (stereo not drawn)	8	4
O=C(CC(NCCC1=CCCCC1)C(=O)O)Nc1cc(Cl)ccc1O (stereo not drawn)	-1	-1
Cc1ccc(C)c(-n2nnnc2SCC(=O)OCC(=O)Nc2cc(Cl)ccc2Cl)c1	-7	-9
Cc1cccc(C)c1N1CC(OCc2ccc(C(=O)c3ccccc3)cc2)c2ccccc2S1(=O)=O (stereo not drawn)	2	7
COc1ccc(C(C)=O)cc1CN1C(=O)C2(CCC2)ON=C1c1cccc(Cl)c1	0	-3
O=C(/C=C/NCc1ccccc1)C(F)(F)F	7	6
CS(=O)(=O)c1ccc(Cc2n[nH]c(Cc3ccccc3)n2)cc1	-1	-3
COc1cc(Cl)ccc1-n1c(CCC(=O)NCCCOC(C)C)cc2c1-c1ccccc1CC2	2	-3
CCc1cccc(NC(=O)N2CCCC(C(=O)N3CCOCC3)C2)c1 (stereo not drawn)	0	2
O=S1(=O)N=C(Nc2ccc(Cl)cc2)c2ccccc21	7	5
CC(/C=C1\SC(=S)N(C(C(=O)O)c2ccccc2)C1=O)=C\c1ccccc1 (stereo not drawn)	6	4
CCCCC(=O)N1CCN(c2ccc(Nc3ccc(C)cc3)nn2)CC1	2	-1
CC(C)C1CN(C(=O)C2CN(C)CCO2)c2ccccc2N1 (stereo not drawn)	-25	-27
Cc1cnc(C(=O)NCC2(c3ccc4c(c3)OCO4)CCCCC2)cn1	1	-2
Cn1cc(C(=O)NCc2ccccc2OC(F)F)c(-c2cccnc2)n1	12	9
CCOc1ccc2nc(NC(=O)/C=C/c3ccc([N+](=O)[O-])cc3)sc2c1	-12	-13
CCCOC(=O)c1[nH]c2c(c1C)C(=O)CC(C)(C)C2	9	3
CN(C)S(=O)(=O)Nc1ccccc1-n1cc(Br)cn1	-6	-7
Cc1ccc(/C=N\NC(=O)CSc2nnc(-c3ccc(Cl)cc3)n2-c2ccccc2)o1	8	15
Cn1cc(-c2cc3c(Nc4cccc(C(F)(F)F)c4)nccc3n2C)cn1	11	-2
CCNC(=S)NN1CCN(C)CC1	0	2
CN(Cc1noc(C2CCCC2)n1)C(=O)c1ccc(C#CC(C)(C)O)o1	6	4
CCOC(=O)c1c(NC(=O)c2ccc(Cl)c([N+](=O)[O-])c2)sc(C(=O)Nc2ccc(OC)cc2)c1C	10	6
O=C(NC1CC1)c1ccnc(-c2cc(O)cc(CCC3CCCCN3)c2)c1 (stereo not drawn)	6	1
O=C(NC1CC1)c1csc(COc2ccc(F)cc2F)n1	6	12
Cc1nc2scc(C)n2c1C=C1C(=O)N(C)C(=O)N(C)C1=O	2	3
CCCCNC(=O)Nc1ccnn1CCCC	6	3
CCc1[nH]n(C)c(=O)c1C1=C(N(C)Cc2ccccc2)C(=O)N(c2ccc(OC)cc2)C1=O	15	14
Cc1cc(C(=O)N2CCCN(C)c3ccc(Cl)cc32)no1	0	-2
N#C/C(=C\c1cc2ccccc2nc1N1CCCCC1)c1nn(CCO)c(N)c1C#N	8	5
CCOC(=O)N1CCN(C2CCCN(C(=O)CC3CCCC3)C2)CC1 (stereo not drawn)	3&-3	-1&-5
CN(c1ccccc1)N1CC(C(=O)N2CCCCC2)CC1=O (stereo not drawn)	-8	-13
CN(CCCNC(=O)c1cccnc1Oc1ccc(Cl)cc1)c1ccccc1	2	-3
CCN1CCN(c2nc3c(c(=O)[nH]c(=O)n3C)n2Cc2ccc(Cl)cc2)CC1	-1	0
O=C(Nc1ccc(OC(F)(F)F)cc1)Nc1nc([C@@H]2O[C@H](CO)[C@@H](O)[C@H](O)[C@H]2O)cs1	-2	13
